# UCH37 inh: inhibitors of human deubiquitinating enzyme UCH37. inhibition, % (no concentration beside the values). purified proteasome/UCH37, Ub-AMC cleavage fluorescence. Q9Y5K5. hit rate 0.33% among 330,000;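 active means mean of two replicates above 20%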;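 further: 0% = compound-free wells with enzyme and 100% = wells lacking proteasome; stock transfer was 100 nL into about 20 µL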
# Target sequence (Q9Y5K5 whole entry, looked up): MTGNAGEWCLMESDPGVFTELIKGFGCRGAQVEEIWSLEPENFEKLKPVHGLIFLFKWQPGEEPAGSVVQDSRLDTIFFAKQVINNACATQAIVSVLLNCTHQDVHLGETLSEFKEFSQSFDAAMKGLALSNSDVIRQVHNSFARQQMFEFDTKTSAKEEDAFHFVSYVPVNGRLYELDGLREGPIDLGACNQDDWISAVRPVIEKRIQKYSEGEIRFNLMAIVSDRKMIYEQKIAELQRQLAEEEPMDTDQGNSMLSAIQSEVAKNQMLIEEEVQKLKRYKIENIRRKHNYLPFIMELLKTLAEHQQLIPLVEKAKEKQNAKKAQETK
#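 Material: human UCH37 enzyme supplied as purified proteasome complex. Measure: % inhibition of Ub-AMC cleavage fluorescence. Medium: pH 7.4 Tris-HCl (50 mM) with ovalbumin, ATP-MgCl2, DTT. Times: 30 min preincubation with enzyme, 25 min cleavage at room temperature. Detection: AMC fluorescence intensity at 355/460 nm.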
# Vif TR-FRET: HIV-1 Vif–A3G interaction blockers – biochemical, TR-FRET, GST-Vif 1-94, biotin-A3G peptide, dose response retest, primary screen (AID 1117319). inhibition, %, or IC50 in µM where a hit was titrated. hit rate 0.57% among 260,000. TR-FRET GST-Vif / biotin-A3G peptide binding; higher % means a stronger effect; test concentration not given here; strong numbers were not always called active;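 active means above the screen mean plus three standard deviations and confirmed in dose response; inconclusive means results disagree or hit not tested in dose response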;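 further: Vif residues 1-94 fused to GST binding biotinylated APOBEC3G peptide 110-148; 0% = full assay without inhibitor and 100% = GST in place of GST-Vif; retest series ran down from 100 µM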
# E coli growth: inhibitors of Escherichia coli growth | hit rate 0.21% among 330,000 | OD600, 23 h; active compounds read low | OD600 absorbance (test concentration not listed);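 active means OD600 absorbance below the run mean of sample wells minus 3.6 SD, in any replicate, cut at about 0.56 in these data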;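 further: stock transfer was 300 nL into about 60 µL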
# LANA-H2A inh: blocks KSHV LANA binding to histone H2A/H2B; Q9QR71; cell-free LANA-H2A/H2B peptide, fluorescence polarization; inhibition, % (no concentration beside the values); hit rate 0.6% among 320,000; in the data active means inhibition mostly above about 10%, no sharp cut-off; inactive means mostly below about 6.7%;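 further: stock transfer was 7.5 nL into about 10 µL; 0% = median of vehicle wells and 100% = median of positive control wells; one replicate is shown; the record names a cut of 25% in any replicate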
# Beta2AR agonist: agonists of human beta-2 adrenergic receptor inducing internalization. Am2.2-beta2AR cells, FAP receptor internalization, flow cytometry; reference of the scale not given here. AID 504454. hit rate 0.43% among 340,000. response, % (test concentration not listed). P07550;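 active means response above a set limit, near 3 SD of response in nonfluorescent compounds, cut at about 42% in these data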;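 further: stock transfer was 100 nL into about 11 µL; a reference agonist was the positive control; negative values mostly stem from fluorescent compounds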
# Target sequence (P07550 whole entry, looked up): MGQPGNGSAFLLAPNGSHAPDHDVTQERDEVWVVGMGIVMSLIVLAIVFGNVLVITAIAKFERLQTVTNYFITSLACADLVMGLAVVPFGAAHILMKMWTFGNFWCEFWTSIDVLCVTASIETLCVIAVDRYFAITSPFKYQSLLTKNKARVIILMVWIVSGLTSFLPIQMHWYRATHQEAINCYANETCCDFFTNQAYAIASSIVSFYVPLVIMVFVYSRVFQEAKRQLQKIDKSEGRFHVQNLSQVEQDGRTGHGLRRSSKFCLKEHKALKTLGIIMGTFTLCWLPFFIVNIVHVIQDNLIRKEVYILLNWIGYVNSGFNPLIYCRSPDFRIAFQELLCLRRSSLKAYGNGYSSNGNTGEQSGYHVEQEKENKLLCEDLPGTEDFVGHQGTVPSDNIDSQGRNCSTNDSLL
# A1 inh: inhibitors of the anti-apoptotic protein A1, read as caspase activation | MEF A1-2A-BIM cells, Caspase-Glo 3/7 luminescence, 3 h; percent of clofoctol response, vehicle zero | caspase activation, % (concentration not given with the values) | hit rate 0.066% among 330,000 | AID 2462;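 active means over half of replicate activation scores above 10%, or exactly half above 10 with the replicate mean above 10; inconclusive means replicate mean below 10 yet half the replicates above 10; inactive means over half of replicates below 10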;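 further: wells of about 30 µL received 50 nL stock; many hits fall short of the cut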
# HNF4A DNA FP: change in binding of human HNF4 alpha to DNA; HNF4a-FITC DNA binding, fluorescence polarization, 1 h; hit rate 0.3% among 360,000; P41235; activity change, % at 10 µM; in the data active means activity change above about 30%, passing the limit was not always enough;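 further: controls were the assay level and a saturating level of protein; the project sought stronger binding though the title names inhibitors; some compounds called inactive have numbers as strong as hits; positive values seem to mean higher polarization but the record does not say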
# * = called active by the depositor; ? = inconclusive; · = not tested or not shown; & = joins results of further samples.
SMILES,UCH37 inh,Vif TR-FRET,E coli growth,LANA-H2A inh,Beta2AR agonist,A1 inh,HNF4A DNA FP
CC(C)c1nc(SCC(=O)Nc2cccc(S(N)(=O)=O)c2)n[nH]1,0.7,5.4%,0.637,1.6,6.3,0.6,-7.0
N#C/C(=C/c1ccc(N2CCCC2)c([N+](=O)[O-])c1)c1nc2ccccc2[nH]1,8.3,3.1%,0.733,-1.8,82.5*,1.1,-6.5
COc1ccc(O)c(C(c2c(C)[nH][nH]c2=O)c2c(C)[nH][nH]c2=O)c1,·,·,·,-1.9,3.8,0.2,3.6
CCOC(=O)N1CCC(N2CC34C=CC(O3)C(C(=O)Nc3ccc(C(C)C)cc3)C4C2=O)CC1 (stereo not given),6.5,1.6%,0.73,5.5,13.1,0.7,-1.8
COc1ccc(CNC(=O)C2CCCN(C(=O)Nc3ccc(OC)cc3)C2)cc1 (stereo not given),0.5,·,0.685,9.6,-10.2,0.2,-1.2
O=C(COC(=O)CCN1C(=O)c2cccc([N+](=O)[O-])c2C1=O)NCc1ccccc1,1.6,·,0.681,-0.9,-2.3,0.0,2.9
FC(F)(F)c1ccc(N/N=C/c2cccnc2)nc1,·,·,·,2.3,2.1,0.8,0.4
C=CCSC(=C(C#N)C#N)c1cc2c([nH]1)CCCC2,·,2.1%,·,-3.8,36.9,-0.2,0.9
O=C(Nc1ccc2c(c1)OCO2)Nc1cnccn1,1.0,5.7%,0.664,9.4,-2.0,0.2,-2.5
Cn1cc(SCC(=O)N2CCOCC2)c2ccccc21,4.3,-3.2%,0.742,4.7,5.6,0.4,3.4
COc1cccc(CNC(=O)C2CCN(S(=O)(=O)c3ccc4c(c3)CC(C)N4C(C)=O)CC2)c1 (stereo not given),-0.6,·,0.682,-2.2,4.5,0.1,1.6
C/C(=N\NC(=O)c1nonc1N)c1cccs1,·,·,·,·,-10.3,-6.5,2.9
CC1CCN(CC(=O)Nc2ccc(S(=O)(=O)NC3CC3)cc2)CC1,3.6,?,0.686,3.0,2.6,-0.2,2.7
O=C1CC(c2ccccc2)Oc2cc(O)cc(O)c21 (stereo not given),3.4,·,0.663&0.691,-2.4,-5.7,-1.3,-4.9
COc1ccc(Cn2c(C(C)C)nc3sc4ccccc4c(=O)c3c2=O)cc1,2.4,3.3%,0.67,2.1,31.8,-1.9,4.7
CCOC(=O)N1CCN(CCC(=O)c2ccc(Br)cc2)CC1,6.1,-5.1%,0.641,3.2,-2.5,0.6,0.4
COc1cc(S(=O)(=O)NC2CCCC2)ccc1Cl,-3.4,0.0%,0.703,-1.0,2.0,1.4,-3.0
O=C(c1cccc([N+](=O)[O-])c1)N1CCN(S(=O)(=O)N2CCCCC2)CC1,0.2,·,0.623,2.7,1.0,-0.6,3.3
CS(=O)(=O)Nc1cccc(C2=NN(S(=O)(=O)c3ccc(F)cc3)C(c3cccs3)C2)c1 (stereo not given),1.9,4.7%,0.691,-4.9,7.2,-1.2,8.3
Cc1ccc(NCc2nnc(SCCN3CCCCC3)n2CC2CCCO2)cc1Cl (stereo not given),0.4,0.3%&2.9%,0.71,-2.3,10.8,1.4,-0.8
COC(=O)[C@H](CCSC)NC(=O)N1CCC(C)CC1,2.1,1.8%,0.692,-0.3,0.8,0.2,-2.8
COC(=O)C(C(=O)OC)C(CC(=O)c1ccc(Br)cc1)c1ccccc1 (stereo not given),2.6,-1.9%,0.663,·,12.0,·,-4.4
C[C@@H](NCCc1ccc(O)cc1)[C@@H](O)c1ccc(O)cc1,5.0,·,·,-2.0,9.7,0.1,-0.4
Cc1cc(C)n(S(=O)(=O)c2ccccc2)n1,1.4,7.5%,0.725,2.2,40.2,0.2,1.9
CC(NC(=O)Cn1cc2c(n1)CCCCC2)c1ccccc1 (stereo not given),4.7,-2.0%,0.743,1.5,-2.3,-1.4,3.4
O=C(NCC1CCCO1)C1CCN(C2CCN(C(=O)C3CCCCC3)CC2)CC1 (stereo not given),2.3,-6.9%,0.647,0.6,2.0,0.2,4.5
Cc1cc(NC(=O)CNC(=O)C2CCCCC2)no1,-0.2,4.9%,0.661,-1.0,6.3,0.0,0.8
Cc1nn(CC(=O)NC2CCCC2)c(C)c1[N+](=O)[O-],1.3,-6.5%,0.691,·,-5.7,0.9,2.9
CN1CCSc2ccc(C(=O)NCc3cccc(F)c3)cc21,-222.2,·,0.725,-1.4,-2.5,-0.4,-1.4
O=C(CCC(=O)OCc1ccc(C(=O)Oc2ccccc2)cc1)Nc1cccc2ccccc12,4.3,-0.1%,0.676,-0.4,9.6,-0.1,0.2
COc1cccc(CNC(=O)COC(=O)c2ccc(Cl)s2)c1,2.4,-9.0%,0.73,1.2,-7.5,0.9,-1.5
COc1ccc(CNC(=O)COC(=O)CCOc2ccc(C)cc2)cc1OC,2.9,3.2%,0.633,-1.4,-3.0,-1.9,1.5
CCCN(CCC)CCNC(=O)C1CC(=O)N(c2ccc(OC)cc2)C1c1ccc(OC)cc1 (stereo not given),0.4,-2.8%,0.699,-1.6,2.0,0.0,-3.8
COc1cccc(NC(=O)C2CCCCC2)c1,2.0,4.1%,0.673,-3.8,1.3,0.2,-1.1
Cc1ccc(NC(=O)[C@@H](CC(C)C)NC(=O)[C@@H]2Cc3ccccc3CN2)cc1,3.2,·,0.696,7.7,-0.8,0.6,3.0
Cc1cccc(C(=O)Nc2cccc(OC(=O)c3cccc(C)c3)c2)c1,-4.7,-0.7%,0.748,6.2,1.5,-1.3,0.5
COc1ccc(S(=O)(=O)N2CCC(C(=O)NC3CC3)CC2)cc1,6.1,·,0.685,3.4,3.1,-0.7,9.2
CNC(=S)NCCc1ccc(OC)c(OC)c1,5.4,7.5%,0.703,5.3,-0.8,0.5,0.4
CN(Cc1ccco1)C(=O)c1ccc(OC2CCN(Cc3ccccn3)CC2)cc1,0.9,·,0.658,-0.6,0.5,0.9,-1.1
C/C=C/c1ccc(OCCOCCNCc2ccccc2)c(OC)c1,4.6,·,0.651,-0.1,14.6,0.2,1.1
O=C(C1=C[C@H](C2CCCCC2)C[C@H](OCc2ccc(CO)cc2)O1)N1CCOCC1,4.3,-4.5%,·,-0.3,0.7,-0.1,-2.2
COc1cccc(Nc2nc(-c3ccccc3)nc3ccccc23)c1,-159.3,·,0.69,2.2,-1.1,-0.6,-1.7
CCOC(=O)C1=C(COc2ccc(F)cc2Cl)NC(=O)NC1c1cc(C)ccc1C (stereo not given),1.3,-1.4%,0.645,-0.6,-6.9,-0.1,0.5
COC(=O)N/N=C/c1cn(Cc2ccc(F)cc2)c2ccccc12,·,0.6%,·,-2.1,-8.2,0.6,-3.6
c1ccc(-c2nnc(N3CCN(c4ccccn4)CC3)c3ccccc23)cc1,4.6,-0.6%,0.704,-6.0,22.5,0.7,-6.3
Cc1c(C(=O)N(Cc2ccccc2)C(C)C)oc2ccc(S(=O)(=O)N3CCOCC3)cc12,-0.1,·,0.707,2.9,18.5,-0.3,-1.3
CCOCCCn1c(SCc2ccccc2)nnc1-c1ccncc1,3.1,-1.1%,0.671,3.9,9.5,-0.4,2.4
C=CCOC(=O)C1=C[C@H](C2CC2)[C@@H](CCCO)[C@H](OCC)O1,5.6,1.2%,0.761,-4.5,9.2,-0.5,-2.7
CNC(=O)COC(=O)/C=C/c1cccc(F)c1,5.6,2.1%,0.698,8.1,1.2,-0.4,1.8
COC(=O)C(C(=O)OC)C(C[N+](=O)[O-])c1ccc(OC)cc1 (stereo not given),0.7,4.6%,0.696,-3.4,0.3,0.0,-2.7

# (next part)
SMILES,UCH37 inh,Vif TR-FRET,E coli growth,LANA-H2A inh,Beta2AR agonist,A1 inh,HNF4A DNA FP
CCn1c(SCC(=O)N2CCCC2)nc2c1c(=O)n(C)c(=O)n2C,-2.2,?,0.715,-9.4,-5.0,-0.6,1.1
Cc1cccc(C)c1NC(=O)CNC(=O)CCNC(=O)c1ccco1,-0.9,9.7%,0.669,5.5,-1.4,-1.1,2.6
COC(=O)C1(CC2CC(c3ccncc3)=NO2)CCN(C(=O)OC(C)(C)C)CC1 (stereo not given),3.6,·,0.705,4.9,3.9,-0.2,-3.1
CCOC(=O)C1CCCN(C(=O)c2cccc(N3C(=O)c4ccccc4C3=O)c2)C1 (stereo not given),4.1,-3.7%,0.657,-4.9,-4.9,-0.3,-1.6
C#CCOCCOCCOCCNc1nc(N2CCN(C(=O)CCCCCCCCCCNC(=O)[C@H](CCCCN)n3cc(CCO)nn3)CC2)nc(N2CCN(C(=O)CCCCCCCCCCNC(=O)[C@H](CCCN=C(N)N)n3cc(C[C@@H](C)CC)nn3)CC2)n1,10.3,·,·,-41.6,19.5,0.2,163.8
CCc1ccc(NC(=O)c2ccc(Cn3cc([N+](=O)[O-])cn3)cc2)cc1,-1.2,·,0.682,3.6,3.6,0.5,1.3
CS(=O)(=O)N(CC(=O)Nc1ccccc1C(=O)N1CCOCC1)c1ccccc1,3.9,?,0.738,1.8,-14.4,0.5,1.8
CCOCC(=O)Nc1nnc(COCC)s1,0.9,10.6%,0.771,-6.2,4.0,1.6,3.9
COc1ccccc1CC(=O)N1CCN(c2ccccc2F)CC1,2.7,·,0.655,-2.7,7.7,0.0,-0.2
COc1ccc(CCNC(=O)c2ccccc2C(=O)NCCc2ccc(OC)c(OC)c2)cc1OC,3.2,·,0.698,-3.2,1.7,0.2,0.9
CCOC(=O)NC1(C(F)(F)F)NC(=O)N(C2CCCCC2)C1=O (stereo not given),0.9,0.2%,0.69,5.1,-3.4,0.1,-3.7
CCCOc1ccc(C(=O)CCC(=O)OC(C)C(=O)Nc2ccc(NC(C)=O)cc2)cc1 (stereo not given),-1.0,-1.2%,0.699,-6.4,-2.5,-0.2,-0.8
COc1ccc(NC(=O)CN(C)C(=O)C2CC(=O)N(CCc3ccc(OC)c(OC)c3)C2)cc1 (stereo not given),1.0,4.3%,0.701,·,5.4,·,-1.7
CCOc1ccc(/C(O)=C2/C(=O)C(=O)N(CCCN3CCOCC3)C2c2ccc(C)cc2)cc1C (stereo not given),5.7,·,0.716,-0.8,9.6,0.7,3.0
O=C(Nc1cccc(Cl)c1)c1csc(-c2ccccc2)n1,1.4,5.7%,0.681,-2.5,0.7,-0.2,-2.0
Cc1cccc2cc(C(c3nnnn3CC3CCCO3)N3CCCC4(CCCCC4)C3)c(=O)[nH]c12 (stereo not given),0.8,?,0.644,·,·,·,·
COc1ccc(OC)c(Cc2nnc(CCC(=O)NC3CCCCCCC3)o2)c1,1.2,2.8%,0.654,1.8,-1.9,0.1,2.7
CC(CO)(CO)NC(=O)c1ccc(=O)[nH]n1,1.9,11.1%,0.692,3.9,0.4,0.2,0.7
CCn1cc([N+](=O)[O-])c(C(=O)N2N=C(c3ccc(OC)cc3OC)CC2c2ccccc2O)n1 (stereo not given),4.4,-4.4%,0.717,0.8,-12.7,0.6,3.2
Cc1cc(Nc2ccc(Cl)cc2)nc(-c2ccccc2O)n1,-49.2,-6.4%,0.686,-3.4,-3.2,0.0,3.5
COC(=O)C1CCN(S(=O)(=O)Cc2ccccc2)CC1,-2.1,-4.6%,0.64,7.9,2.2,-0.5,-1.2
COc1cccc(OCc2cc(C(=O)N(C)Cc3nc(C)cs3)no2)c1,1.6,4.7%,0.684,-1.6,4.0,-2.3,-1.4
CC1(C)CC2(CCO1)C(Nc1ccccc1)=NC(=S)N2CC(N)=O (stereo not given),2.7,·,0.634,-0.9,-5.6,-0.7,1.5
CCn1cc(CCC(=O)NC2CCCC2)c2ccccc21,-0.4,23.4%,0.703,4.5,-1.1,0.0,0.9
Cc1cccn2c(=O)c3cc(C(=O)NC4CCCCCC4)sc3nc12,-313.6,3.0%,0.687,-1.7,-7.3,0.0,5.3

# Screening results as filed in PubChem.
